2A StopGo: High Throughput Screening for Foot and Mouth Disease Virus Antivirals; human cells with a luciferase reporter of 2A StopGo recoding; control for the full effect not named in the record; Potency, µM (titrated, usually from 57.9 µM), inactives show at the highest dose signal change, negative = less light; 410,000 tested, 1.2% active; active = well fitted falling curve with a large enough effect; inconclusive = small, poorly fitted or top-dose-only effect; inactive = no such curve, though single readings can be large or run the other way; tested in HEK293T cells; further: nearly all actives have a fitted effect of over 45% in size; luciferase light after 4 h
RE007 growth inh: qHTS Assay for Inhibitors of the HIV-1 protein Vpr; 360,000 tested, 0.21% active; Potency, µM (doses to about 92.2 µM), inactives show top-dose activity change, negative = less growth; S. pombe RE007 Vpr strain, BacTiter-Glo ATP luminescence, 24 h; control for the full effect not named in the record; AID 651644, 2012; active = well fitted falling curve with a large enough effect; inconclusive = small, poorly fitted or top-dose-only effect; inactive = no such curve, though single readings can be large or run the other way;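 further: nearly all actives have a fitted effect of over 50% in size; the assay follows cell death caused by Vpr and the record does not say whether a fall means rescue or toxicity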
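Fission yeast RE007 carrying one integrated HIV-1 vpr copy, seeded at OD 0.01 in PMG+AL medium with 23 nL pinned compound. Grown 24 h at 30 degrees; viability read by BacTiter-Glo luminescence after 5 min.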
Active calls of the source: *; ? = inconclusive; & = joins results of further samples; [ ] = dose if it differs, or a comment. On the % scale 0 is the no-effect control and ±100 the full control effect; potency means the concentration at half of the fitted maximal effect. These rows are one share of the data; rates above refer to the full screens.

Fields – 2A StopGo | RE007 growth inh
> Nc1[nH]c(C(=O)c2ccccc2)c(-c2ccccc2C(F)(F)F)c1C(=O)NCc1ccc(F)cc1
  -14% | -14%
> N#CCCSC(=S)C1CCCC1=N (configuration not stated)
  -9% | -6%
> Cc1ccsc1C(=O)N1CCC1(C)C(=O)NS(=O)(=O)c1ccccc1C(F)(F)F (configuration not stated)
  -10% | 11%
> Cc1cccc(C)c1NC(=O)c1ccc2sc([C@@H]3O[C@H](CO)[C@H](O)[C@H](O)[C@H]3O)nc2c1
  -14% | 10%[18.4 µM]
> COc1ccc(-c2ccc(C(=O)Nc3cccc(Oc4ccccc4)c3)c3occc23)c(C)c1
  -29% | 0%[18.4 µM]
> O=[N+]([O-])c1ccc(NN=C(Oc2ccccc2)c2ccc([N+](=O)[O-])cc2)cc1
  -12% | -24%
> Cc1ccc(CNc2nc(NCc3ccccc3)nc3ccsc23)c(C)c1
  ? | 2%
> Cc1nc2c(=O)[nH]n(C)c2nc1C
  -7% | 6%
> CC(C)C[C@H]1CNC(=S)N1CC1CCCN1C[C@H](Cc1ccccc1)N1C[C@H](Cc2ccc(O)cc2)N(CC2CCCCCC2)C1=S (some centres not stated)
  ? | -14%
> Cn1nnc(NC(=S)NC(=O)c2ccc3ccccc3c2)n1
  49%[activator] | -20%
> COc1cccc(CNC(=O)COC(=O)c2ccc(N3CCCC3=O)cc2)c1
  -10% | 4%
> CC(C)C(=O)N1CCC1(C)C(=O)Nc1cc(-c2ccccc2)nn1C (configuration not stated)
  15% | 22%
> CCCC1NC(=O)c2cccnc2-n2c1nc1ccc(Br)cc1c2=O (configuration not stated)
  0% | -11%
> O=c1ccn([C@@H]2O[C@H](CNCc3c(OCc4ccccc4F)ccc4ccccc34)[C@@H](O)[C@H]2O)c(=O)[nH]1
  -27% | -22%
> OCC[C@@H]1C[C@H](O)[C@@H](O)[C@@]2(OCCCc3cc(Cl)ccc32)O1
  -4% | 4%
> O=C1C2C3C=CC(C3)C2S(=O)(=O)C2C3C=CC(C3)C12 (configuration not stated)
  -21% | -23%
> CN(C)c1ccc(CC(=O)N2CCCCC2c2cc(C(=O)Nc3cccc4c3CCCC4)no2)cc1 (configuration not stated)
  0% | -18%
> COc1ccc2[nH]cc(CCNC(=O)/C=C/[C@H]3O[C@@H](n4cnc5c(NC(=O)c6ccccc6)ncnc54)[C@H](O)[C@@H]3O)c2c1
  1% | -16%
> COc1ccc(CN2C(=O)CCC2(C)c2nnnn2-c2c(C)cccc2C)cc1 (configuration not stated)
  -4% | 6%
> COc1ccc(CC(=O)OCC(=O)N2c3ccccc3CC2C)cc1OC (configuration not stated)
  -13% | 5%
> OCC[C@H]1NCc2cc(CO)cc(-c3ccccc3)c21
  -12% | -10%
> CCN(CC)c1ncnc2c1ncn2[C@H]1CN(Cc2cc(OC)c(OC)c(OC)c2)C[C@@H](CO)O1
  -20% | 2%
> c1ccc(CN2CCC3CC2c2c3cccc2N2CCOCC2)cc1 (configuration not stated)
  -16% | -16%
> COc1cc(NC(=O)Nc2nc(C(N)C3CCCCC3)cs2)cc(OC)c1OC (configuration not stated)
  ? | 9%
> C[C@@H]1CN([C@H](C)CO)C(=O)CCCn2cc(nn2)CO[C@H]1CN(C)S(=O)(=O)c1ccc(-c2ccccc2)cc1
  -7% | -20%
> CCc1nc2ccc(C(=O)N3CCN(C(=O)c4ccco4)CC3)cn2c1N(CC)Cc1cccc(Br)c1
  ? | -21%
> CC(C)Oc1ccc(CN2CCC2(C)C(=O)Nc2cnc3ccccc3c2)cc1 (configuration not stated)
  -19% | -20%[18.4 µM]
> O=c1c(-c2cc3ccccc3[nH]2)nc2ccccc2n1C(CCc1ccccc1)c1nc2ccccc2[nH]1 (configuration not stated)
  7% | 2%
> Cc1cccc(C)c1-n1nnnc1-c1nc2ccccc2[nH]c1=O
  -13% | 12%
> Cc1cccc(C)c1NC(=O)C1c2ccccc2OCC(=O)N1Cc1cccnc1 (configuration not stated)
  -14% | 2%
> OC[C@@H]1CN(Cc2ccco2)C[C@H](n2cnc3c(NCc4ccncc4)ncnc32)O1
  -10% | 4%[18.4 µM]
> Cc1cc(C)c2c(CN3CCCC3)cc(=O)oc2c1
  ? | -14%
> Cc1ccc(C(=O)OCC(=O)Nc2cc(Cl)ccc2C#N)o1
  ? | -11%
> COc1cccc(N2CCN(C(=O)c3cccc(NC(=O)C4=C(C)OCCS4)c3)CC2)c1
  -7% | 3%
> CCCCCCCC1=NN(c2ccc(S(=O)(=O)O)cc2)C(=O)C1N=O (configuration not stated)
  10% | -17%
> CC(=O)Nc1ccc(C(=O)N2CCCCC2c2cc(C(=O)NCc3cccnc3)no2)cc1 (configuration not stated)
  -1% | 7%
> CCc1ccccc1Nc1nc2ccccc2[nH]1
  9% | -9%
> COc1ccc(CN2C(=O)CCC2(C)c2nnnn2-c2ccc3c(c2)OCCO3)cc1 (configuration not stated)
  -12% | 4%
> CC1(C(=O)NS(=O)(=O)c2ccccc2C(F)(F)F)CCN1C(=O)CCC1CCCC1 (configuration not stated)
  -8% | 8%[18.4 µM]
> Cc1cc(N2CCN(C(c3ccnc4ccccc34)c3nnnn3-c3c(C)cccc3C)CC2)c2ccccc2n1 (configuration not stated)
  -9% | ?
> Cc1cc2c(cc1C)-c1nnnn1C(N1CCC(Cc3ccccc3)CC1)C(=O)N2 (configuration not stated)
  ? | 5%
> CCOC(=O)[C@]12CCC=C1N(Cc1ccc(Cl)cc1Cl)C(=O)[C@H](CC(=O)N1CCCCC1)C2
  -23% | -11%
> CCOC1=C2CN(S(=O)(=O)c3ccc(C)cc3)C(c3ccccc3)CC2N(S(=O)(=O)c2ccc(C)cc2)C(c2ccc(Br)cc2)C1 (configuration not stated)
  -17% | 9%
> COC(=O)[C@]12CCCCC=C1N(Cc1ccc(Cl)cc1Cl)C(=O)[C@H](CC(=O)NCc1ccc(OC)c(OC)c1)C2
  32µM* | 21%
> CCCCNC(=O)C1(C)CCCCN1C(=O)c1cc2ccccc2s1 (configuration not stated)
  -15% | 16%[18.4 µM]
> CC(C)(C)OC(=O)N(CCc1ccccc1)Cc1cccc(OCc2cccc(NC(=O)/C=C/c3ccccc3)c2)c1
  19% | 6%
> COc1ccccc1-c1cnc2c(c1)C(=O)N([C@@H](C)CO)C[C@H](C)[C@H](CN(C)C)O2
  -5% | 5%
> c1ccc(C2=NC(c3ccccc3)CC2)cc1 (configuration not stated)
  0% | -26%
> ClC1=CN(C2=NCCC2)CC1
  -18% | -11%
> CCC(C(=O)NCc1ccccc1)n1c(-c2ccc3c(c2)CCO3)nc2ccccc21 (configuration not stated)
  -8% | -6%

(next part)
Fields – 2A StopGo | RE007 growth inh
> CCCCC(=O)N(C)c1c(CC)nc2c(OCc3ccc(C(F)(F)F)cc3)cccn12
  ? | 1%
> CCc1nc2ccc(C(=O)N(C)Cc3ccco3)cn2c1N(C)CCCc1ccccc1
  -3% | -22%[18.4 µM]
> Clc1cccc(CNc2ccn3nc(-c4ccc(OCc5ccccc5)cc4)cc3n2)c1
  -8% | -21%
> COCCNC(=S)Nc1ccc(N2CCOCC2)c(S(=O)(=O)Nc2ccc(Cl)cc2)c1
  53%[activator] | -18%
> O=C(O)/C=C/c1ccc(Cn2ccnc2)cc1
  -5%&-11% | 9%
> Cc1ccccc1S(=O)(=O)NC(=O)C1(C)CCN1C(=O)C1CCCCC1 (configuration not stated)
  -19% | 10%
> C[C@@H]1CN([C@@H](C)CO)C(=O)CCCn2nncc2CO[C@@H]1CN(C)C(=O)Nc1ccccc1C(F)(F)F
  -20% | 6%
> CCC(Sc1nc2ccsc2c(=O)n1Cc1ccc(C(=O)O)cc1)C(=O)Nc1cccc(OC)c1 (configuration not stated)
  -25% | 1%
> CCOC(=O)[C@]12CCC=C1N(CCC1=CCCCC1)C(=O)[C@H](CC(=O)NCc1ccc(OC)c(OC)c1)C2
  -16% | 14%
> CCC(=O)N1Cc2cc(C(=O)NCC(F)(F)F)nc(-c3cccc(-c4cncnc4)c3)c2[C@H]1CCO
  -21% | 1%
> CCCOc1c(Br)cc(C(=O)OCc2cc(=O)n3ccsc3n2)cc1OC
  -26% | -7%
> Cc1ccc(S(=O)(=O)N2C3CC(c4ccccc4)N(S(=O)(=O)c4cccc(Cl)c4)CC3C(=O)C[C@H]2c2ccccc2)cc1 (some centres not stated)
  -16% | -5%
> COC(=O)c1ccc2nc(-c3cccc(Cl)c3)c(Cc3ccccc3)n2c1
  -19% | -27%
> CN(C)CCN1CCN(C2CN(Cc3cn(Cc4ccc(F)cc4)nn3)S(=O)(=O)C2)CC1 (configuration not stated)
  -11% | 18%
> COC(=O)c1ccc2nc(-c3ccc(Cl)cc3)c(Cc3cccc(Cl)c3)n2c1
  -23% | -26%
> Cc1cc(Br)cn2c(Cc3ccccc3)c(-c3ccc(C#N)cc3)nc12
  -25% | 2%
> CC(=O)Nc1ccc2cnn(C(C)=O)c2c1
  -3% | -3%
> O=C(NCc1ccncc1)[C@@H]1CCCN1C(=O)[C@H]1CCCN1C(=O)c1cccc(Cl)c1
  -21% | -4%
> CC1(c2ccc(F)cc2)OC(=O)c2c1ccc1ccccc21 (configuration not stated)
  0% | 5%
> N#CCC(=O)Nc1ccc(C(=O)OCC(=O)Nc2cccc3ccccc23)cc1
  -22% | 0%
> O=C(c1ccco1)N1N=C(c2ccccc2O)CC1c1cccs1 (configuration not stated)
  ? | 1%
> O=S1(=O)CCN(C2CCCCCCC2)CC1
  -25% | -9%
> CCCCCCCCN1C(=O)[C@H](CC(=O)NCC2CCCCC2)C[C@@]2(C(=O)OC)CCCCC=C12
  -7% | 4%
> COc1ccc(-c2ccc(C(=O)NCC3CCOCC3)c3occc23)c(C)c1
  ? | 36%
> Cc1cc(C)c(C(O)c2ncc(-c3cccc4ccccc34)[nH]2)c(C)c1 (configuration not stated)
  -24% | -16%
> COc1ccc(NC(=O)C2(C)CCN2C(=O)CC2CCCC2)cc1OC (configuration not stated)
  -9% | 13%[18.4 µM]
> CCc1nc2c(OCC3CCCCC3)cccn2c1N(C)C(=O)c1ccc(OC)cc1
  -17% | -14%
> CNC(=O)OCc1ncn(-c2ccccc2)c1COC(=O)NC
  -7% | -2%
> COc1cc(C(=O)N2Cc3ccc(Br)cc3-n3nncc3C2)cc(OC)c1OC
  -9% | 2%
> CC1(C(=O)N2Cc3ccccc3C2)CCN1C(=O)C1(c2ccc(Cl)cc2)CC1 (configuration not stated)
  -4% | 11%

Whole records, looked up by structure. Order of screens: 2A StopGo	RE007 growth inh
O=S1(=O)CCN(C2CCCCCCC2)CC1 across the screens: -25%	-9%
O=C(c1ccco1)N1N=C(c2ccccc2O)CC1c1cccs1 (configuration not stated) across the screens: ?	1%
COc1ccc(NC(=O)C2(C)CCN2C(=O)CC2CCCC2)cc1OC (configuration not stated) across the screens: -9%	13%[18.4 µM]
CCc1nc2c(OCC3CCCCC3)cccn2c1N(C)C(=O)c1ccc(OC)cc1 across the screens: -17%	-14%

The list continues:
Fields – 2A StopGo | RE007 growth inh
> Cc1cc(OCC(=O)Nc2nccs2)c2c(C)c(C)c(=O)oc2c1
  8% | -7%
> CC(C)(C)NC(=O)C1C(c2ccc(C(F)(F)F)cc2)=Nc2ccccc2N1C(=O)c1cccc2ccccc12 (configuration not stated)
  -20% | -14%
> Cc1cccc(C)c1-n1nnnc1-c1nc2cc(Br)ccc2[nH]c1=O
  -5% | -8%
> CCCn1c(=S)[nH]c2cc(C(=O)N3CCN(C)CC3)ccc2c1=O
  ? | -2%
> COc1ccc(-c2nc3cc(C)c(Br)c(C)n3c2Cc2cccc(F)c2)cc1OC
  -20% | -17%
> CC1=C(C(=O)OCc2ccccc2)C(c2ccccc2OS(=O)(=O)c2ccccc2[N+](=O)[O-])NC(=O)N1CCCC(=O)O (configuration not stated)
  0% | 20%
> COc1cc(NC(=O)COc2ccc([N+](=O)[O-])cc2)ccc1NC(=O)c1ccco1
  -4% | -8%
> COc1ccc(N/C(N)=N/c2nc(C)cc(C)n2)cc1
  -19% | -3%
> Oc1cccc(-c2ccc3nccn3c2)c1
  25% | -15%
> CCOC(=O)[C@]12CCCC=C1N(Cc1ccco1)C(=O)[C@H](CC(=O)NCCCOC)C2
  -18% | 6%
> O=C(c1cc(C2CCCCN2C(=O)CCCc2ccccc2)on1)N1CCOCC1 (configuration not stated)
  4% | 1%
> COc1cc2ccc(C(C)=NNC(N)=S)cc2cc1OC
  23% | 0%
> CC1=C(c2ccccc2)CCC1=O
  5% | 8%
> COc1cc(CNC(=O)Nc2nnc([C@@H]3C[C@H](O)[C@@H](CO)O3)s2)cc(OC)c1OC
  -2% | 0%[18.4 µM]
> CCCCC[C@@H](C)N1C[C@@H](COCc2ccccc2)Oc2cc(N3CCC[C@@H]3COC)ccc2S1(=O)=O
  4% | 5%
> COC(=O)C[C@@H]1CC[C@@H](NS(=O)(=O)c2ccc(OC)cc2)[C@@H](CO)O1
  -17% | 64%

Screening data deposited in PubChem by National Center for Advancing Translational Sciences (NCATS).
